# Mtb betalactam = beta-lactam sensitization of Mtb H37Rv, H37Rv. M. tuberculosis H37Rv growth with meropenem, percent inhibition; hits of this screen are not shown here. inhibition, % at 25 µM. hit rate 0.27% among 330,000. AID 434955, 2010;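 active = about 74% or more and at least 40 points above the plate without the antibiotic, then above 30% in a dose series; inconclusive = first-round hits that could not be retested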;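 note: growth measured after seven days incubation then overnight dye step; 0% = bacteria only wells and 100% = bacteria with antibiotic; twin plates without the antibiotic show which effects depend on it; some results filed as inactive read as strong as hits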
# RecA splice inh = Mtb RecA intein splicing inhibitors, primary screen, biochemical, fluorescence, HTS | Protein RecA (Mycobacterium tuberculosis (strain ATCC 25618 / H37Rv)), P9WHJ3 | cell-free RecA intein splicing | inhibition, %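 (about 9 µM by stock and volumes)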 | hit rate 0.75% among 290,000 | AID 2221, 2009; in the data active = inhibition above about 30%; inconclusive = no clear call, values can overlap the other calls;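 note: 0% = vehicle wells and 100% = reference inhibitor control wells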
# Target sequence (P9WHJ3 whole entry, looked up, canonical isoform): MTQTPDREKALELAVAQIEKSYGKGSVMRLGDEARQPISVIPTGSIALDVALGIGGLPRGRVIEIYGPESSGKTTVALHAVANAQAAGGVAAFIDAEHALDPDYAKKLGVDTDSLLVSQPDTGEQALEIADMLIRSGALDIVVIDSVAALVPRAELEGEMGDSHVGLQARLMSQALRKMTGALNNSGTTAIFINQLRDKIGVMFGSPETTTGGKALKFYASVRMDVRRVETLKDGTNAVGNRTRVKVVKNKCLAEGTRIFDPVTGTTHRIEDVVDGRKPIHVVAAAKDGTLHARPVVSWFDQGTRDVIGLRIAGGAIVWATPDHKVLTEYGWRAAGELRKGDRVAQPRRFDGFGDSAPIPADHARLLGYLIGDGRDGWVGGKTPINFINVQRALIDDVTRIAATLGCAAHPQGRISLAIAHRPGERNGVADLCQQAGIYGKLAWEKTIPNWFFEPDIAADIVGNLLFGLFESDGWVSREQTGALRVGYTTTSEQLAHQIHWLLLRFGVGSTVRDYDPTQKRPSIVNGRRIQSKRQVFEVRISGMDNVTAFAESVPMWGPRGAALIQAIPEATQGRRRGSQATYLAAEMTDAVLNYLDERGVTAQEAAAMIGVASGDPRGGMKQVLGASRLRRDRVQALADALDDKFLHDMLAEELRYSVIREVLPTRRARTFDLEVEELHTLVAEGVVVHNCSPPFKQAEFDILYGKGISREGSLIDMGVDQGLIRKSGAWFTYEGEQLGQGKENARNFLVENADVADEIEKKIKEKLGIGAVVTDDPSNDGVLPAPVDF
# Arbovirus anti = antivirals against arbovirus infection, primary screen, cell-based, full library, 10K replicate subset; hit rate 0.37% among 200,000; arbovirus infection cell-based antiviral screen; inhibition, % at 10 µM;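 active = inhibition from about 30%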;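 note: bluetongue infection of BSR cells; cell survival read as ATP light after 72 h; 0% = infected wells without compound and 100% = uninfected wells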
# Mtb H37Rv = M. tuberculosis H37Rv growth inhibitors, H37Rv strain (AID 1626) | M. tuberculosis H37Rv growth inhibition; higher % means a stronger effect | inhibition, % at 10 µM, or IC50 in µM where a hit was titrated | hit rate 0.95% among 220,000;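 active = confirmed in a dose series; inconclusive = inhibition above 80% but not taken into the dose series; inactive = below 80% or under 30% at every dose of the series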;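 note: bacteria incubated seven days before Alamar blue readout; 0% = bacteria only wells and 100% = bacteria with antibiotic wells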
# YopH inh = YopH tyrosine phosphatase inhibitors, primary screen, biochemical, fluorescence Ex485/Em525. hit rate 0.16% among 140,000. YopH tyrosine phosphatase [Yersinia enterocolitica]. inhibition, %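 (about 10 µM by stock and volumes)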;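 active = inhibition of 50% or more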;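 note: controls were vehicle for no effect and minimum signal wells for full effect; inactives centre near -20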
# Arbovirus anti repeat = further read-out of Arbovirus anti, marked with its call; inhibition, %; measured here: 10K subset replicate screen; many hits read low in the repeat;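 first of two repeat runs on a subset; 0% = infected and 100% = uninfected wells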
# Numbers without * were called inactive; ? = inconclusive; . = not tested or not shown. These rows are one share of the data (hit frequency here may not be typical).
SMILES,Mtb betalactam,RecA splice inh,Arbovirus anti,Mtb H37Rv,YopH inh,others
O=C(Nc1sc2c(c1C(=O)N1CCOCC1)CCCCC2)c1cccnc1,-3,4.1,7,6%,.,
Cc1cccc(Nc2ccccc2C(=O)NCc2ccco2)c1C,14,11,-5,11%,-48,
CC1=CC(=O)c2c(O)ccc(O)c2C1=O,85,.,-4,?,.,
CCCS(=O)(=O)c1c(S(=O)(=O)CCC)c2c(N)cccn2c1C(=O)OC,-1,-1.4,-1,-14%,.,
Cc1ccc(CNC(=O)C2CC(c3ccccc3F)=NO2)cc1 (stereo not given),-2,-1.9,.,1%,.,
COc1ccc(C(=O)NC(=C(Cl)Cl)S(=O)(=O)c2ccc(C)cc2)cc1,-4,6.0,.,.,.,
CCOC(=O)c1c(NC(=O)CSc2nnc(C)s2)sc2c1CCN(C)C2,0,-9.6,2,-1%,-24,
Cc1ccc(NC(=O)c2cc(S(=O)(=O)Nc3ccc(C)cc3)cs2)cc1,-6,11,.,-18%,-37,
COc1ccc2c(c1)CC/C(=C/c1ccco1)C2=O,73,7.7,-10,2%,-26,
COCCn1c(-c2ccccc2Cl)nc2c(c(=O)c3ccccc3n2C)c1=O,-3,-3.4,31*,1%,-10,
COc1ccccc1-c1cc(C(=O)N2CCCC2)no1,7,4.2,.,.,.,
Cc1cccc(Oc2cc(N)cc([N+](=O)[O-])c2)c1,92,3.4,-10,.,-36,
CC(Oc1ccc(Br)cc1Br)C(=O)Nc1cccnc1 (stereo not given),65,-2.2,.,.,.,
COc1cc2c3nnc(-c4ccc(F)cc4)c-3cn(Cc3ccccc3F)c2cc1OC,.,.,-5,18%,.,
c1ccc(CNC2=NCCS2)cc1,-4,0.0,9,1%,-15,
O=C(CSc1ncn[nH]1)Nc1ncc(C(F)(F)F)cc1Cl,-2,-1.6,7,-3%,.,
CCOc1ccc(CCNC(=O)c2cccc(S(=O)(=O)N3CCN(C(C)=O)CC3)c2)cc1OCC,-4,-1.0,.,.,.,
Cc1cccc(C)c1NC(=O)C1(N(C(=O)c2ccccn2)c2ccc(O)cc2)CCCCC1,-6,-0.1,21,.,.,
COc1cccc2cccc(/C=N/n3cnnc3)c12,4,-8.3,14,1%,.,
COc1ccc(NS(=O)(=O)c2cccc(C(=O)N3CCN(c4ccccc4O)CC3)c2)cc1,70,1.5,.,.,.,
Oc1ccc(-c2n[nH]c(C(F)(F)F)c2-c2ccccc2)c(O)c1,5,-0.8,-1,-1%,.,
CCOC(=O)c1cnc(SCc2ccc(C(C)(C)C)cc2)nc1N,-8,0.3,-1,-1%,5,
COc1ccc(NC(=O)c2cc(-c3ccccc3)on2)cc1OC,2,0.7,.,.,.,
COc1cc2c(cc1OC)-c1cc3ccc4c(c3c[n+]1CC2)OCO4,-1,-43,-1,-11%,36,
O=C(CCNC(=O)c1ccco1)Nc1cccc(Br)c1,-3,-0.4,5,-1%,.,

# A draw from above in order of molecular weight, ascending.
SMILES,Mtb betalactam,RecA splice inh,Arbovirus anti,Mtb H37Rv,YopH inh,others
Cc1ccc(CNC(=O)C2CC(c3ccccc3F)=NO2)cc1 (stereo not given),-2,-1.9,.,1%,.,
COc1cc2c(cc1OC)-c1cc3ccc4c(c3c[n+]1CC2)OCO4,-1,-43,-1,-11%,36,
Cc1ccc(NC(=O)c2cc(S(=O)(=O)Nc3ccc(C)cc3)cs2)cc1,-6,11,.,-18%,-37,
CCCS(=O)(=O)c1c(S(=O)(=O)CCC)c2c(N)cccn2c1C(=O)OC,-1,-1.4,-1,-14%,.,
CCOC(=O)c1c(NC(=O)CSc2nnc(C)s2)sc2c1CCN(C)C2,0,-9.6,2,-1%,-24,
Cc1cccc(C)c1NC(=O)C1(N(C(=O)c2ccccn2)c2ccc(O)cc2)CCCCC1,-6,-0.1,21,.,.,
COc1ccc(NS(=O)(=O)c2cccc(C(=O)N3CCN(c4ccccc4O)CC3)c2)cc1,70,1.5,.,.,.,

# Back to the main list, starting four compounds before the break.
SMILES,Mtb betalactam,RecA splice inh,Arbovirus anti,Mtb H37Rv,YopH inh,others
CCOC(=O)c1cnc(SCc2ccc(C(C)(C)C)cc2)nc1N,-8,0.3,-1,-1%,5,
COc1ccc(NC(=O)c2cc(-c3ccccc3)on2)cc1OC,2,0.7,.,.,.,
COc1cc2c(cc1OC)-c1cc3ccc4c(c3c[n+]1CC2)OCO4,-1,-43,-1,-11%,36,
O=C(CCNC(=O)c1ccco1)Nc1cccc(Br)c1,-3,-0.4,5,-1%,.,
COc1ccc(Cn2nnnc2CN2CCc3ccccc3C2)cc1,0,5.0,-7,-2%,-19,
CCc1nc(N2CCC3(CC2)OCCO3)c2nnn(Cc3ccccc3Cl)c2n1,0,-1.2,-11,10%,6,
COc1ccc(C(=O)Nc2ccc(S(=O)(=O)Nc3nccc(C)n3)cc2)cc1,2,0.5,.,.,.,
CCS(=O)(=O)N1CCC(C(=O)Nc2cc([N+](=O)[O-])ccc2C)CC1,-7,-26,.,-1%,.,
O=[N+]([O-])c1ccc(O)c(/C=N/Nc2nn[nH]n2)c1,5,-2.5,15,-5%,.,
CC(C)(C)SCCNC(=O)c1ccc(Cl)c(S(=O)(=O)N2CCOCC2)c1,-11,-3.2,.,6%,36,
CN(C(=O)CN1C(=O)NC(C)(CCc2ccccc2)C1=O)c1ccccc1 (stereo not given),-3,-2.6,.,.,.,
COC(=O)C1=C(C)Nc2ncnn2C1c1ccccn1 (stereo not given),-8,-0.8,-2,-6%,-7,
Cc1c(Cl)cccc1NC(=O)CC1NCCNC1=O (stereo not given),-2,-0.5,-3,-8%,-3,
Cc1cccnc1CN1CCN(C(=O)CCc2nnc(CCc3ccccc3)o2)CC1,0,-1.9,3,-2%,.,
N#C/C(=C\c1c[nH]c2ccccc12)C(N)=O,3,4.1,.,7%,.,
CC1CCN(CCOc2ccccc2-c2ccccc2)CC1,4,13,-1,-2%,-19,
COc1cccc(OC)c1C(=O)NCCSC1CCCCC1,-10,0.3,6,-4%,.,
Cc1ccccc1OCC(=O)NCCS(=O)(=O)N1CCN(c2ccc(F)cc2)CC1,-5,1.6,.,.,.,
CC(=O)C(=Cc1ccc(O)cc1)C(C)=O,4,0.3,.,-1%,.,
CS(=O)(=O)n1nc(C(=O)N2CCOCC2)nc1N,8,3.0,6,-8%,0,Arbovirus anti repeat=-1
C/C(=N\NC(=O)c1ccc(NS(=O)(=O)c2cccs2)cc1)c1ccncc1,3,-0.9,7,-6%,.,
Cn1c(CN2CCCCC2)c(C#N)c2ccccc21,-8,0.6,-2,3%,0,
CCOC(=O)c1c(N)nn(C(=O)c2ccccc2)c1-c1ccccc1,0,17,0,5%,.,
Cc1cc(C)cc(NC(=O)CC2NCCNC2=O)c1 (stereo not given),-4,.,-2,-5%,-38,
Cc1nn(Cc2ccc([N+](=O)[O-])cc2)c(=O)n1-c1ccc(Cl)cc1,9,1.4,8,-4%,.,
Cc1c(-c2ccccn2)c(=O)[nH]n1-c1ccc(F)cc1,51,0.7,2,?,.,
O=c1c(Cc2c(F)cccc2Cl)c(O)ccn1CCCn1ccnc1,0,-0.3,-3,7%,.,
CCOC(=O)N1CCN(C(=O)CCN2C(=O)COc3ccc(C)cc32)CC1,-5,.,-1,-3%,-10,
CCOC(=O)C(O)(c1ccc(N(CC)C(=O)COc2ccccc2)cc1)C(F)(F)F (stereo not given),-6,-1.6,5,-5%,-30,

# The closing 3 records of the part above are carried over, then new ones follow:
SMILES,Mtb betalactam,RecA splice inh,Arbovirus anti,Mtb H37Rv,YopH inh,others
O=c1c(Cc2c(F)cccc2Cl)c(O)ccn1CCCn1ccnc1,0,-0.3,-3,7%,.,
CCOC(=O)N1CCN(C(=O)CCN2C(=O)COc3ccc(C)cc32)CC1,-5,.,-1,-3%,-10,
CCOC(=O)C(O)(c1ccc(N(CC)C(=O)COc2ccccc2)cc1)C(F)(F)F (stereo not given),-6,-1.6,5,-5%,-30,
CC(=O)NCCCc1nc2ccccc2n1Cc1ccc(C)cc1,-12,2.0,-4,-5%,2,
COc1cc(C(=O)NC2CCCc3c2cnn3-c2ccccc2F)cc(OC)c1OC (stereo not given),0,0.6,.,.,.,
NC(=O)c1ccsc1NC(=O)C1CCCN1S(=O)(=O)c1ccc(Cl)cc1 (stereo not given),-4,-1.1,6,-10%,-47,
Cc1ccc(NC(=O)CSc2nnc(C)c(=O)n2N)cc1,-11,-1.2,21,-5%,.,
COC(=O)c1cn[nH]c1NC(=S)Nc1ccc(Cl)c(Cl)c1,2,0.4,12,43%,13,
CCn1cc(C(=O)O)c(=O)c2cc(F)c(N3CCN(S(=O)(=O)c4ccc5c(c4)OCCO5)CC3)cc21,72,-0.1,2,48%,.,
COc1ccc(NC(=O)CCCNC(=O)c2ccc(Cl)cc2)cc1OC,-3,-0.8,.,.,.,
C=COCCNC(=O)Nc1ccc(Cl)c(Cl)c1,-9,6.2,7,-7%,-6,
CCOC(=O)C1CCCN(C(=O)CNC(=O)c2nn(-c3ccc(OC)c(Cl)c3)c(=O)c3ccccc23)C1 (stereo not given),-4,1.7,.,.,.,
COc1ccc(NC(=O)NCc2ccccn2)c(OC)c1,-17,-0.6,.,.,.,
CC12CCC(=O)N1C(C(=O)Nc1ccc(SC(F)F)cc1)CS2 (stereo not given),82,-1.1,.,.,.,
O=C(c1ccc(N2CCCCC2)c([N+](=O)[O-])c1)N1CCOCC1,1,-0.9,11,-8%,-19,
Cc1cc(Cl)c(S(=O)(=O)N2CCCC2)cc1OCC(=O)NC1CCCCC1,4,2.3,5,-7%,-5,
Cc1cc(=O)[nH]c(N/N=C/c2ccc(O)c(O)c2)n1,8,-1.1,.,.,.,
COCCn1c(=S)[nH]c2cc(C(=O)N3CCc4ccccc4C3)ccc2c1=O,-4,-0.1,-17,-4%,.,
Cc1cc(C)n(CC(=O)N/N=C/c2c[nH]c3ccccc23)n1,2,1.6,.,-2%,.,
CCCOc1cccc(C(=O)N(Cc2ccco2)C2CCS(=O)(=O)C2)c1 (stereo not given),-13,-0.6,4,3%,-17,
CCOC(=O)c1ccc(N2C=C(C(=O)OC)C(c3cccc(O)c3)C(C(=O)OC)=C2)cc1,-6,-1.1,.,.,.,
COc1cc(CC(=O)O)ccc1OCc1ccccc1,19,0.1,.,-6%,.,
CCCc1ccc(OCc2ccc(C(=O)N3CCSCC3)o2)cc1,-8,-1.3,.,.,.,
CCOC(=O)c1c(C)[nH]c(C)c1C(=O)COC(=O)c1ccc(S(=O)(=O)N(CC)CC)cc1,.,0.9,14,-3%,-106,
Cc1c(C(C)C)c(=O)n(-c2ccc(S(=O)(=O)NC3CCCCC3)cc2)n1C,-1,-3.4,9,5%,.,
Cc1ccc(OCc2nnc(SCc3ccc(C#N)cc3)n2-c2ccc(C)cc2)cc1,?,7.6,2,7%,4,
COCCCNS(=O)(=O)c1ccc(OC)c(Cl)c1Cl,0,1.4,4,2%,-14,
CCC1(c2ccc(F)cc2)NC(=O)N(CC(=O)N2CC(=O)Nc3ccccc32)C1=O (stereo not given),-8,-0.3,.,.,.,
CCOC(=O)C1=C(C(C)=O)C(c2cccnc2)C(C#N)=C(N)O1 (stereo not given),-15,-8.2,10,2%,9,
CCOC(=O)c1[nH]c2ccccc2c1NC(=S)Nc1cc(C)ccc1C,-5,-1.3,1,.,-36,
O=c1c2[nH]cnc2n(-c2ccc(F)cc2)c(=O)n1Cc1ccccc1,-5,-0.4,.,.,.,
Cc1cc(Cl)ccc1OCC(=O)N1CCN(c2ncccn2)CC1,0,3.7,16,-4%,.,
COC(=O)c1cc(C(=O)Nc2nnc(CC(C)(C)C)s2)cc([N+](=O)[O-])c1,1,-1.4,20,5%,5,
